Screening data deposited in PubChem BioAssay by National Center for Advancing Translational Sciences (NCATS).
ClpP mod: qHTS Assay for Activators of ClpP; ATP-dependent Clp protease proteolytic subunit (Bacillus subtilis (strain 168)), P80244; AID 651965, 2013; actives 1.9% (n = 340,000); Potency, µM (titrated, usually from 57.5 µM), for the others: top-dose activity change, negative = active; purified B. subtilis ClpP, FRET peptide cleavage, 20 min; active = well fitted falling curve with a large enough effect; inconclusive = small, poorly fitted or top-dose-only effect; inactive = no such curve, though single readings can be large or run the other way; also: the source files actives as falling curves though it sought activators and does not explain the sign; nearly all actives have a fitted effect of over 65% in size; many hits overshoot -100%
Target sequence (P80244 whole entry, looked up): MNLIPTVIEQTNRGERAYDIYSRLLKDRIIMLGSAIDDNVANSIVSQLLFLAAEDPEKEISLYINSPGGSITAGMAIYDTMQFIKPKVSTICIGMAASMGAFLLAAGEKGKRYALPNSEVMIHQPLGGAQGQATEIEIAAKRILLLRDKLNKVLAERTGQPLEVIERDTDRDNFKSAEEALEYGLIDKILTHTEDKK
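Purified B. subtilis ClpP, 10 microg/mL final in Tris/HCl pH8 with KCl, BSA, glycerol and Tween-20, cleaved an Abz/nitrotyrosine-quenched decapeptide. Fluorescence (ex 320, em 430) was read at 0 and 20 min at room temperature. Delta was normalized to 5.8 microM ADEP and DMSO/no-enzyme controls.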
* = called active by the depositor; ? = inconclusive. Potency is read from the fitted curve at half-maximal effect. This is a subset (hit frequency here may not be typical).

smiles,ClpP mod
COc1ccccc1CNC(=O)c1ccc(CSc2nc3ccncc3n2Cc2cccc(F)c2)cc1,-14.1%
COc1ccc(-c2nc(C)c(CCNS(=O)(=O)c3ccc(F)cc3)s2)cc1OC,3.9%
COc1ccc(NC(=O)CSc2nc3c([nH]c4ccccc43)c(=O)n2-c2ccccc2)c(OC)c1,?
CC(=O)NCc1nc2cccnc2n1Cc1ccccc1,-1.3%
CCc1ccc(NC(=O)CSc2nc(C)c(C(=O)Nc3ccc(Cl)cc3)c(-c3ccc(OC)cc3)c2C#N)cc1,-25.9%
O=C(c1cc(-c2ccc(Cl)cc2)n[nH]1)N1CCN(S(=O)(=O)c2ccc(Br)s2)CC1,-6.1%
COc1ccc(-c2nc3ccc(NC(=O)CO)cc3c(=O)n2Cc2cccc(Cl)c2)cc1COc1ccc(NC(C)=O)cc1,?
COc1ccccc1NC(=O)N1CCN(c2nnc(C)c3c(C)n(-c4ccc(Cl)cc4)nc23)CC1,-0.4%
Cc1ccccc1Cn1c2ccccc2c2cnn(CC(=O)NC3CCCCCC3)c(=O)c21,-19.1%
O=c1c(S(=O)(=O)c2ccccc2)cn(Cc2ccc(F)cc2)c2cc(N3CCCCC3)c(F)cc12,-17.0%
CC(=O)c1cccc(NC(=O)Cn2c(=O)c(CNc3ccc(C)cc3)cc3cc4c(cc32)OCCO4)c1,3.9%
Fc1ccc(Br)cc1C1C=C(c2ccc(Br)cc2)Nc2nnnn21 (centres undefined),-5.7%

A draw from above in order of formula weight, smallest number first:
smiles,ClpP mod
COc1ccc(NC(=O)CSc2nc3c([nH]c4ccccc43)c(=O)n2-c2ccccc2)c(OC)c1,?
O=c1c(S(=O)(=O)c2ccccc2)cn(Cc2ccc(F)cc2)c2cc(N3CCCCC3)c(F)cc12,-17.0%
COc1ccccc1CNC(=O)c1ccc(CSc2nc3ccncc3n2Cc2cccc(F)c2)cc1,-14.1%

Next structures.
smiles,ClpP mod
Cc1ccc(C)c(N2CCN(S(=O)(=O)c3ccc4[nH]c5c(c4c3)CCCCC5)CC2)c1,?
Brc1ccc(-n2nc(-c3ccccc3)c3cnc4cc5c(cc4c32)OCO5)cc1,-2.7%
COc1cccc(C(=O)NCC(=O)OCc2cc(=O)n3nc(C)sc3n2)c1,-5.9%
COc1ccc(OC)c2sc(N3CCN(C(=O)C(C)(C)C)CC3)nc12,1.3%
Cc1ccc2oc(C(=O)Nc3ccc(S(=O)(=O)N4CCCC(C)C4)cc3)cc(=O)c2c1 (centres undefined),3.7%
COc1cc(Nc2nc(SCc3ccccc3F)nc3ccccc23)cc(OC)c1,?
Cc1ccc(S(=O)(=O)NNC(=O)c2ccc(C(=O)N(c3ccccc3)c3ccccc3)cc2)cc1,-27.6%
CCCCNC(=O)C1C(c2ccccc2)=Nc2ccccc2N1C(=O)c1ccc(C(F)(F)F)cc1 (centres undefined),-4.3%
COc1ccc(CNC(=O)CN(c2ccc(C(C)C)cc2)S(=O)(=O)c2c(C)nn(C)c2C)cc1,4.0%
COc1ccc(OC)c(NC(=O)CN2C(=O)c3ccccc3Sc3ccc(C(=O)N4CCCC4)cc32)c1,-1.1%
CCOc1ccc(C(NC(=O)c2cc(OC)c(OC)c(OC)c2)c2cc(Cl)c3cccnc3c2O)cc1 (centres undefined),-3.0%
CCc1ccc(-c2cc(C)no2)cc1S(=O)(=O)Nc1cc(OC)c(OC)c(OC)c1,0.0%

Four entries from above, as labelled records:
> COc1cc(Nc2nc(SCc3ccccc3F)nc3ccccc23)cc(OC)c1
  ClpP mod: ?
> Cc1ccc(S(=O)(=O)NNC(=O)c2ccc(C(=O)N(c3ccccc3)c3ccccc3)cc2)cc1
  ClpP mod: -27.6%
> CCCCNC(=O)C1C(c2ccccc2)=Nc2ccccc2N1C(=O)c1ccc(C(F)(F)F)cc1 (centres undefined)
  ClpP mod: -4.3%
> COc1ccc(CNC(=O)CN(c2ccc(C(C)C)cc2)S(=O)(=O)c2c(C)nn(C)c2C)cc1
  ClpP mod: 4.0%

Later entries:
smiles,ClpP mod
CCOc1ccc(CNC(=O)c2ccc3c(c2)N(Cc2ccccc2)CCS3)cc1,4.7%
CC1CCC(NC(=O)Cn2ncc3c4ccccc4n(Cc4ccc(F)cc4)c3c2=O)CC1 (centres undefined),-7.8%
CCOC(=O)Cn1c(=O)oc2cc(S(=O)(=O)N3CCN(c4ccc(F)cc4)CC3)ccc21,2.1%
COc1ccccc1C(=O)c1cn(CC(=O)Nc2ccccc2F)c2nc(C)ccc2c1=O,0.0%
CCOC(=O)c1c(C)n(-c2ccccc2)c2ccc(OC(=O)c3cccc(C)c3)cc12,-8.0%
Cc1ccc(Cc2nc3ccccc3nc2SCC(=O)N2CCCCC2C)cc1 (centres undefined),-10.5%
COc1ccc(-n2c(C)c(C(C)=O)c3cc(OC(=O)c4ccc(C)cc4)ccc32)cc1,1.3%
CCc1ccccc1NC(=O)NCc1ccc2c(c1)CCN2C(=O)c1ccccc1,-4.1%
CCc1ccc(NCc2cc3ccc(OC)cc3n(CC(=O)Nc3ccc(C(C)C)cc3)c2=O)cc1,2.0%
O=C(NCc1ccccc1F)C(=O)NCC(c1ccco1)S(=O)(=O)c1cccs1 (centres undefined),-0.1%
O=C(CSCn1nnc2c(=O)[nH]c(Cc3ccc(F)cc3)nc21)Nc1ccccc1,-2.8%
COc1ccc(-n2ccn(CC(=O)Nc3ccccc3C(F)(F)F)c(=O)c2=O)cc1OC,3.5%
O=C(Nc1nc(-c2cccs2)cs1)C1CC(=O)N(c2ccc3c(c2)OCCO3)C1 (centres undefined),-1.2%
Cc1nc2nc(NCc3cccc(Br)c3)[nH]n2c(=O)c1Cc1ccccc1,1.7%
Cc1cc(C)cc(N2C(=O)CSC23C(=O)N(Cc2c(F)cccc2Cl)c2ccccc23)c1 (centres undefined),-1.8%
Cc1ccccc1Cn1nnc2c(=O)[nH]c(C3CCN(C(=O)c4ccccc4)CC3)nc21,0.1%
Cc1cccc(-c2noc(CN(C(C)C)S(=O)(=O)c3ccc(Br)cc3)n2)c1,-6.2%
CCOc1cc(OCC)cc(C(=O)N2CCC[C@@H]2C(=O)N2CCC[C@H]2C(=O)NCc2ccncc2)c1,0.3%
CCn1c2ccccc2c2nnc(N3CCN(c4cccc(C)c4C)CC3)nc21,-1.2%
CCOc1ccc(CNC(=O)c2nn(-c3ccc(OC)cc3)c(=O)c3c2c2ccccc2n3C)cc1,0.7%
COC(=O)C1=CN(c2ccc(OC)cc2)C(N)=C(C#N)C1c1ccc(OC)cc1 (centres undefined),-1.2%
CCOC(=O)c1c(NC(=O)CSc2cn(CCNC(=O)c3ccc(OC)c(OC)c3)c3ccccc23)sc2c1CCC2,-12.7%
Fc1ccccc1C1=NC(c2ccc(C(F)(F)F)cc2)=Nc2ccccc2N1,0.2%
Cc1nn(-c2ccc(N3CCOCC3)nn2)c(C)c1CCC(=O)NCc1ccc(Cl)cc1,-6.5%
COc1ccc(NS(=O)(=O)c2ccc(N3CCCCS3(=O)=O)cc2)cc1Cl,-0.5%
CCN(CCCNC(=O)CN1N=C(c2ccc(OC)cc2)CCC1=O)c1cccc(C)c1,-6.3%
COc1ccccc1C1C=C(c2ccc(C(C)C)cc2)Nc2nnnn21 (centres undefined),-11.8%
CCC1CN(C(=O)C2CCN(S(=O)(=O)c3c(C)noc3/C=C/c3ccc(C)cc3)CC2)c2cc(C)ccc2O1 (centres undefined),3.6%
Cc1ccc(CN2COc3ccc4c(C)cc(=O)oc4c3C2)cc1,4.4%
CCSc1nnc2c(n1)OC(c1sccc1C)N(C(C)=O)c1ccccc1-2 (centres undefined),-2.1%
Cc1ccc(C(=O)CSc2nc(-c3ccccc3)nc3c2CCCC3)c(C)c1,-1.5%
O=C(C1COc2ccccc2O1)N(Cc1cccnc1)c1nc2c(F)cc(F)cc2s1 (centres undefined),-2.1%
CCCN(Cc1cccs1)C(=O)Nc1ccc(OCC)cc1,0.3%
CCNC(=O)CCCN1C(=O)CCn2nc(-c3cccn3C)cc21,-4.1%
Cc1ccc(NC(=O)c2oc3ccc4c(c3c2C)C(=O)CC(C)(C)O4)c(C)c1,1.1%
O=C(Nc1c(C(=O)N2CCN(c3ccccc3)CC2)oc2ccccc12)c1ccc(Br)o1,-11.5%
Cc1cc(C)c2c(n1)sc1c(=O)n(-c3cc(Cl)ccc3C)nnc12,-7.5%
CCOc1ccc(NC(=O)CSc2nnc(CNC(=O)c3c(F)cccc3Cl)o2)cc1,0.8%
CCOc1ccc(CCNC(=O)C2CCN(Cc3nc(-c4ccc(OC)c(OC)c4)oc3C)CC2)cc1OCC,-2.0%
CC(C)C[C@@H](CN1CCCC1CN1C(=S)NC[C@@H]1Cc1ccccc1)N1C[C@H](Cc2ccccc2)N(CC2CCCCCC2)C1=S (some centres undefined),0.3%
COc1ccc(CC(=O)NCCc2sc(-c3ccc(Cl)cc3)nc2C)cc1OC,?
CCC(=O)N1CCc2cc(Br)cc(S(=O)(=O)N3CCN(c4cc(C)ccc4C)CC3)c21,-1.0%
COc1cc(NC(=O)Cn2nc(C(F)(F)F)c3c2CCCC3)c(OC)cc1Cl,1.2%
CC(C)CSc1nnc(-c2ccccc2)c(-c2ccccc2)n1,0.0%
Cc1c(Cl)cccc1NC(=O)Cn1cnc2nc3c(cc2c1=O)CCCC3,-5.4%
CCOc1ccc(NC(=O)c2c(NC(=O)c3ccccc3Br)sc3c2CCC(C)C3)cc1 (centres undefined),?
CCOC(=O)[C@]12Cc3c(cc(OC)c(OC)c3OC)[C@H]1N(C1CCCCC1)C(=O)c1cc(OC)ccc12,-1.4%
CCOC(=O)c1ccc(NC(=O)CSc2nnc(CNC(=O)c3ccc(OC)cc3)n2CC)cc1,-3.8%
COc1cc(C(CC(=O)NCc2ccccc2)N2Cc3ccccc3C2=O)cc(OC)c1OC (centres undefined),1.1%
Cc1ccc2nc(NCc3ccccc3)c3nncn3c2c1,-5.9%
COc1ccccc1N1CCN(C(=O)C2CCN(S(=O)(=O)c3cnc[nH]3)CC2)CC1,-1.3%
CCCN(Cc1cccs1)C(=O)Nc1cc(C)cc(C)c1,-1.4%
COc1ccc(-c2nc(C)c(CCNS(=O)(=O)c3cc(C)c(C)cc3C)s2)cc1,3.7%
O=C1COc2ccc(-c3cc(-c4ccccc4)c4c(n3)-c3ccccc3OC4)cc2N1,-29.4%
CCCc1nn2c(=O)cc(COC(=O)c3ccccc3NC(=O)COc3ccccc3F)nc2s1,-1.2%
CCc1nn2c(=O)cc(COC(=O)c3ccccc3NC(=O)c3ccc(C(C)(C)C)cc3)nc2s1,-23.8%
CN1CCN(C(CNC(=O)c2ccccc2F)c2ccc3c(c2)OCO3)CC1 (centres undefined),-2.6%
O=C(c1cccs1)N(Cc1cccnc1)c1nc2c(F)cc(F)cc2s1,296.2%
NCCCNC(=S)NCCCN(Cc1ccc(Cl)cc1)c1ccc(Br)cn1,-0.9%
COc1ccc(NC(=O)c2nc(-c3ccc(C)cc3)n3c2CCCCC3)cc1,-26.0%

(listing goes on)
smiles,ClpP mod
Cn1c(=O)n(C)c2cc(N3CCOCC3)c(NS(=O)(=O)c3ccc(Cl)cc3)cc21,-6.0%
CC(C)N(Cc1ccccc1)C(=O)CN1C(=O)CSc2ccc(S(=O)(=O)N3CCCC3)cc21,-0.8%
CCCN(C(=O)c1cc2c(s1)-c1ccccc1SC2)c1ccccc1F,31.6µM*
Cc1ccccc1CNCc1c(C(=O)O)c(C)n(Cc2ccc(F)cc2Cl)c1C,4.2%
Cc1cccc(CS(=O)(=O)c2ncc(Cl)c(C(=O)Nc3nc4ccc(F)cc4s3)n2)c1,2.2%
Cc1ccc(NC(=O)N(Cc2cn(C)c3ccccc23)C2CCCCC2)cc1C,-3.6%
Clc1ccccc1OCCSc1nnc(-c2cccs2)o1,?
COc1ccc(S(=O)(=O)NCC(c2ccc(N(C)C)cc2)N2CCc3ccccc32)cc1 (centres undefined),-3.2%
CCc1ccc(NC(=O)Cn2c(=O)n(Cc3ccco3)c(=O)c3cccnc32)cc1,?
O=C(C1CCC1)N1CCc2cc(S(=O)(=O)N3CCN(c4ccccc4)CC3)ccc21,1.6%
Cc1oc(-c2cccc(Cl)c2)nc1CN1CCC(C(=O)NCCCN2CCN(c3cccc(Cl)c3)CC2)CC1,-0.1%
Cc1ccc(C2CC(=O)n3nc(-c4ccc(F)cc4)nc3S2)cc1 (centres undefined),-1.5%
CCOC(=O)c1sc2ccccc2c1S(=O)(=O)Nc1ccc(OC)c(Cl)c1,-0.2%
COc1ccc(C)cc1NC(=O)N1CC(C)Sc2ccccc21 (centres undefined),0.3%
COc1ccc(-c2cc3nc(C)c(CCC(=O)NCCc4ccc(Cl)cc4)c(C)n3n2)c(OC)c1,-17.5%
CCN(c1cccc(C)c1)S(=O)(=O)c1ccc(N2CCCCS2(=O)=O)cc1,-1.5%
CCOc1ccc(C2c3c(oc4ccc(C)cc4c3=O)C(=O)N2CCCN(C)C)cc1 (centres undefined),0.1%
Cc1c(Cl)cccc1NC(=O)Cn1nc(C)c2sc3ccccc3c2c1=O,-7.1%
CCOC(=O)c1c(S(=O)(=O)NCC(=O)Nc2ccc(C)c(Cl)c2)c(C)n(C)c1C,-0.5%
